Source: PubChem BioAssay (ICCB-Longwood Screening Facility, Harvard Medical School)
fixLJ activator = increases Burkholderia fixLJ two-component signaling | B. multivorans fixK-promoter GFP reporter, 18 h; active compounds read high | z-score (test concentration not listed) | 29,000 tested, 0.3% active;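 active means replicate mean overnight rise in green fluorescent reporter signal, 3 or more SD over negative controls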;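 further: score is relative to vehicle wells of the plate; 300 nL library stock went into each well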
* marks the source's active call; other numbers are inactive results. Some of the compounds tested; the hit share may differ from the screen's.

SMILES | fixLJ activator
COc1ccc(NC(=O)Cn2c(=O)n(Cc3ccc(C(=O)NCc4ccccc4Cl)cc3)c(=O)c3ccccc32)cc1OC | 0.63
Cc1ccc(C)c(Cn2c(=O)n(-c3ccc(Cl)cc3)c(=O)c3c4c(sc32)CCC4)c1 | 1.55
CN(CCCO)C(=O)c1coc(COc2ccc(F)cc2Cl)n1 | -1.92
CC(C(=O)N1CCCN(Cc2cccnc2)CC1)N1C(=O)c2cccc3cccc1c23 (stereo not given) | -3.08
Cc1ccccc1NC(=O)Cn1c(=O)n(CCc2ccccc2)c(=O)c2ccccc21 | -1.36
O=S(=O)(c1ccccc1)c1nc(-c2ccc(Cl)cc2Cl)oc1N1CCCCCC1 | -1.66
Cc1ccccc1C(NC(=O)c1ccc(N2CC(=O)NC2=O)cc1)c1ccncc1 (stereo not given) | -1.52
CCCCOC(=O)c1cccc(NC(=O)c2cc3ccccc3o2)c1 | 2.06
CCn1c(=O)c2cc(C(=O)Nc3cccc(C(F)(F)F)c3)sc2c2ccccc21 | -1.12
CCCCCOC(=O)CSc1nc2sc3c(c2c(=O)n1Cc1ccccc1)CC(C)(CC)OC3 (stereo not given) | -1.03
O=C(NCCc1nc2ccccc2n1CCOc1ccc(Cl)cc1)C1CCCCC1 | 0.42
CCN(C(=O)CCS(=O)(=O)c1ccc2c(c1)CCN2C(C)=O)c1cccc(C(F)(F)F)c1 | -0.9
Cc1cccc(N(C)C(=O)c2cc3c(=O)oc4ccc(C)cc4c3s2)c1 | -0.1
Cc1ccc(-n2nc(C(=O)N3CCN(c4cc(Cl)ccc4C)CC3)c3c4ccccc4n(C)c3c2=O)cc1 | 0.96
CCC(=O)O[C@H]1CCC2C3CCC4=CC(=O)CC[C@]4(C)C3CC[C@@]21C (stereo not given in full) | -0.52
COc1ccc(-c2[nH]c(-c3ccc(F)cc3)nc2SCC(=O)Nc2ccc(OC)c(OC)c2)cc1 | -1.88
Cc1ccc(CCNC(=O)c2cc3c(=O)n(C)c4ccccc4c3n2C)cc1 | -0.58
COc1cc(Cl)c(C)cc1NC(=O)CCc1nc2cccnc2n1Cc1cccs1 | -1.58
CCc1ccc(S(=O)(=O)c2cn(Cc3ccc(OC)cc3)c3cc(OC)c(OC)cc3c2=O)cc1 | -0.16
O=C(CS(=O)(=O)c1nc(-c2ccc(Cl)cc2)cn1-c1ccccc1)Nc1cccc(Cl)c1 | -0.87
CCc1ccc(OCC(=O)Nc2ccc3c(c2)c2ccccc2n3CC)c(Br)c1 | 0.44
CN1CC(NC(=O)Cc2ccccc2OCc2ccccc2)CC1C(=O)O (stereo not given) | -0.35
CCOc1ccccc1NC(=O)Cn1nnc(C(=O)Nc2ccc(C)c(C)c2)c1N | -1.49
COc1ccc(-c2cc(C(F)(F)F)n3nc(C(=O)Nc4cc(C(F)(F)F)ccc4Cl)cc3n2)cc1OC | 1.37
O=C(Cc1ccc(F)cc1)NCc1cc2n(n1)CCN(C1CCCCC1)C2 | -0.47
CSc1oc(-c2cccs2)nc1S(=O)(=O)c1ccc(Br)cc1 | -2.11
Cc1ccc2c(=O)cc(C(=O)Nc3ccc(S(=O)(=O)Nc4nc(C)cc(C)n4)cc3)oc2c1 | -0.5
O=C(NCc1nc(Cc2cccs2)no1)N1CCN2C(=O)OCC2C1 (stereo not given) | 0.09
COc1ccc(CCNC(=O)c2ccc3c(c2)N(Cc2cccc(Cl)c2)C(=O)CS3)cc1OC | 0.69
CCOc1ccc(NC(=O)CCNS(=O)(=O)c2ccc3c(c2)oc(=O)n3C)cc1 | -1.33
CCc1ncc(C(=O)NCc2ccc3c(c2)CC(C)(C)O3)cn1 | 0.11
O=[N+]([O-])O[C@@H]1CO[C@H]2[C@@H]1OC[C@@H]2O | -0.86
CCOCCCn1c(=N)c(C(=O)NC2CCCCC2)cc2c(=O)n3ccccc3nc21 | -1.64
COc1cccc(CNC(=O)Cn2ncc3c4ccccc4n(C)c3c2=O)c1 | -1.07
CCC(NC(=O)c1cccc(-c2cncc(=O)[nH]2)c1)c1nc(C)c(C)s1 (stereo not given) | -1.56
CC(=O)c1ccc(N2CCN(C(=O)CCCCn3c(=O)[nH]c4ccsc4c3=O)CC2)cc1 | -1.84
CCc1ccc2ncc(C(=O)c3ccc(C)c(C)c3)c(N3CCC(C(N)=O)CC3)c2c1 | -2.23
CCn1c(CNC(=O)c2ccc(OC)cc2)nnc1SCC(=O)Nc1cccc(C)c1C | -0.26
Cc1ccc2nc(N3CCN(c4cccc(C)c4C)CC3)c3nnnn3c2c1 | -0.43
Cc1cccc(N2CCN(C(c3ccccc3)c3nnc(-c4ccccc4Cl)o3)CC2)c1C (stereo not given) | -0.93
CC1CCN(c2oc(-c3cccs3)nc2S(=O)(=O)c2ccccc2)CC1 | -1.81
Cc1ccc(NC(=O)C2CCCN(S(=O)(=O)c3c(C)nn(C)c3C)C2)c(C)c1 (stereo not given) | 0.31
O=C(NCc1ccccc1)c1ccc(NC(=O)N2CC3CCCN3c3ccccc32)cc1 (stereo not given) | -0.04
CCOC(=O)C1CCN(C(=O)C2CCN(C3=NS(=O)(=O)C(c4ccc(C)cc4)=C3CC)CC2)CC1 | 0.97
Cc1ccc(Nc2c(-c3ccccn3)nc3ccc(Br)cn23)cc1 | -1.89
COc1ccc(CNC(=O)CN(c2cc(C)cc(C)c2)S(=O)(=O)c2c(C)[nH]c(=O)[nH]c2=O)cc1 | -0.78
CC(=O)NC(CCC(N)=O)C(=O)N(C)Cc1cnc2ccccc2c1 (stereo not given) | 0.34
Cc1cc2ccccc2n1CCNC(=O)c1cc(C(F)(F)F)cc(C(F)(F)F)c1 | -1.54
CCOc1ccc(-c2cc(OC(=O)c3ccccc3)c3c(C)oc(C)c3c(=O)c2)cc1 | -1.73
Cc1cccc(CNC(=O)C2CCN(c3nnc(-n4c(C)ccc4C)s3)CC2)c1 | -0.17
CCOc1cc(C(=O)N2CC(=O)Nc3ccc(F)cc3C2c2ccccc2)cc(OCC)c1OCC (stereo not given) | -1.55
Cc1cccc(NC(=O)c2c(NC(=O)c3ccccc3)sc3c2CCC3)c1 | -0.97
CCOc1nc(-c2ccccc2)ccc1-c1noc(-c2ccc(C)cc2)n1 | -0.76
COc1ccc(NC(=O)c2oc3ccccc3c2NC(=O)c2cccc(F)c2)c(OC)c1 | -0.13
NCCS(=O)(=O)O | 0.33
CC[C@]1(C(=O)NCc2ccc3c(c2)CCCC3)CC2CCC1N2C(=O)COC (stereo not given in full) | 0.23
Cc1nc2ccc(S(=O)(=O)NCC(=O)Nc3ccc(C)c(Cl)c3)cc2s1 | -2.43
CN(C)C(=O)CC(O)c1cc2n(n1)CCN(C(=O)c1ccc(F)c(F)c1)C2 (stereo not given) | -0.17
CCN(CC)CCNC(=O)c1cn(CC)c2ccc(S(=O)(=O)N(C)C3CCCCC3)cc2c1=O | -0.44
COc1ccccc1C(=O)Nc1ccc2oc(-c3cccc(Cl)c3Cl)nc2c1 | 0.72

Look-ups from the entries so far.
CC[C@]1(C(=O)NCc2ccc3c(c2)CCCC3)CC2CCC1N2C(=O)COC (stereo not given in full) in fixLJ activator = 0.23
COc1ccc(NC(=O)c2oc3ccccc3c2NC(=O)c2cccc(F)c2)c(OC)c1 in fixLJ activator = -0.13

Back to the main list, repeating the 4 entries before the break.
SMILES | fixLJ activator
Cc1nc2ccc(S(=O)(=O)NCC(=O)Nc3ccc(C)c(Cl)c3)cc2s1 | -2.43
CN(C)C(=O)CC(O)c1cc2n(n1)CCN(C(=O)c1ccc(F)c(F)c1)C2 (stereo not given) | -0.17
CCN(CC)CCNC(=O)c1cn(CC)c2ccc(S(=O)(=O)N(C)C3CCCCC3)cc2c1=O | -0.44
COc1ccccc1C(=O)Nc1ccc2oc(-c3cccc(Cl)c3Cl)nc2c1 | 0.72
CCCc1cc(CNC(=O)c2scc3c2CCCC3)on1 | 0.04
Cc1cc(C(=O)NCC2CCS(=O)(=O)C2)ccc1NC(=O)c1ccco1 (stereo not given) | -0.18
COc1ccccc1NC(=O)c1cc2c(=O)oc3ccc(C)cc3c2s1 | -0.06
COc1ccc2c(c1)Cc1sc(NC(=O)c3ccccc3Br)nc1-2 | 0.29
CC(=O)NC(C)c1nc(C(C)C)nn1-c1ccc2c(c1)OCCO2 (stereo not given) | -0.51
COc1ccc(NC(=O)c2c(C)oc3ccc(O)c(CN4CCCCCC4)c23)cc1Cl | 0.17
Cc1nc(C2CCOC2)cc(N2CCC(O)(c3ccccc3)CC2)n1 (stereo not given) | 0.14
CCCn1nccc1S(=O)(=O)N1CCC2(CC1)C(C(=O)O)CC(=O)N2C (stereo not given) | -0.64
CCCCNC(=O)[C@@H](c1ccccc1)N1Cc2ccccc2C1=O | 0.15
CCCCCCSc1nnc2c(n1)OC(C)Nc1ccc(Br)cc1-2 (stereo not given) | -0.81
COCc1noc(CNC(=O)CN(C)Cc2ccncc2)n1 | -0.61
O=C(NCc1nc(-c2ccccc2)no1)c1ccco1 | -0.61
CNc1nc(C(=O)N2CCCC(C(=O)c3nccn3C)C2)cs1 (stereo not given) | -2.3
CC(=O)N1CCc2cc(S(=O)(=O)CCC(=O)N3CCN(c4ccccc4F)CC3)ccc21 | -0.86
Cc1ccc(N(CC(=O)NCCc2ccccc2)S(=O)(=O)N(C)C)cc1 | -0.33
N#Cc1ccc(C(=O)N2CCC(c3nccn3CC3CC3)CC2)cc1 | 0.28
CC1(C2CC2)Cc2nnc(CCc3nc4ccccc4[nH]3)n2C1 (stereo not given) | -1.32
COCC(=O)N1CCc2[nH]cnc2C12CCN(CC=C(C)CCC=C(C)C)CC2 | -2.61
CCc1nc(C)c(C(=O)N2CCOC3(CCN(Cc4ccnn4C)CC3)C2)o1 | -2.77
COc1ccc2nc(NC(=O)c3nc(SCc4ccc(F)cc4)ncc3Cl)sc2c1 | -0.72
Cn1c(=O)c2c(nc(SCC(=O)Nc3ccc(OC(F)(F)F)cc3)n2Cc2cccc(C(F)(F)F)c2)n(C)c1=O | -0.86
COc1ccc(C(=O)Nc2cc3c(cc2N2CCCC2)n(C)c(=O)c(=O)n3C)cc1OC | -0.66
Cc1ccsc1C(CNC(=O)CN1C(=O)CN(C)C1=O)N(C)C (stereo not given) | -1.61
Cc1cc(F)ccc1NC(=O)C1CCCN(c2nnc(-n3c(C)ccc3C)s2)C1 (stereo not given) | -0.29

Reformatted with each value named: part of the list above
Compound: CNc1nc(C(=O)N2CCCC(C(=O)c3nccn3C)C2)cs1 (stereo not given)
  fixLJ activator: -2.3

Compound: COc1ccc2nc(NC(=O)c3nc(SCc4ccc(F)cc4)ncc3Cl)sc2c1
  fixLJ activator: -0.72

Compound: COCC(=O)N1CCc2[nH]cnc2C12CCN(CC=C(C)CCC=C(C)C)CC2
  fixLJ activator: -2.61

Compound: Cn1c(=O)c2c(nc(SCC(=O)Nc3ccc(OC(F)(F)F)cc3)n2Cc2cccc(C(F)(F)F)c2)n(C)c1=O
  fixLJ activator: -0.86

New compounds follow:
SMILES | fixLJ activator
C#CCSc1nc(-c2ccccc2)cc(-c2ccccc2)c1C#N | -0.23
COc1cccc(C(=O)Nc2ccc(NC(=O)c3ccc(C(C)(C)C)cc3)cc2)c1 | 2.16
CC(C)CC(O)C1CCN(C(=O)c2ccc(Cn3cccn3)o2)CC1 (stereo not given) | -1.25
O=C(OCc1ccccc1)c1ccc(-c2nnn(Cc3ccccc3F)n2)cc1 | -0.44
Cc1ccc(CNC(=O)CSc2nc3c(sc4ccccc43)c(=O)n2CCCC(=O)NCCO)cc1 | -0.96
Cc1cccc(-c2nc3c4ccccc4nc(N4CCN(c5cc(C)ccc5C)CC4)n3n2)c1 | 1.96
C=CCN(Cc1cccnc1)C(=O)CSc1nnc(C)s1 | 0.86
CCCc1ccc(S(=O)(=O)N2CCC(c3nnnn3-c3ccc(OC)cc3)CC2)cc1 | -2.11
CCc1ccc(NC(=O)Cn2c(=O)c3cc(Cl)ccc3n3nncc23)cc1 | 0.54
COc1cc(C2C(C(=O)OC(C)C)=C(C)N=C3SCCC(=O)N32)ccc1OCc1ccccc1 (stereo not given) | -1.01
Cc1nc2sc(C(=O)Nc3ccc(F)cc3)c(N)c2c(-c2ccc(Br)cc2)c1C(=O)Nc1ccc(Cl)cc1 | 1.25
CCOc1ccc(NC(=O)c2cc3c(s2)-c2ccccc2OC3)cc1 | -2.37
COc1ccc(-c2nc3ccccc3o2)cc1NC(=O)COc1c(C)cc(Cl)cc1Cl | -0.72
CCCOC1CCCN(S(=O)(=O)c2sc3c(c2C(=O)O)CCNC3)C1 (stereo not given) | -0.19
COc1ccc(CCn2nc(C(=O)O)c3c2CCN(C(=O)c2nc[nH]c2C)C3)cc1 | 0.87
COc1ccc(OC)c(CCNC(=O)C2=C(C)C(=O)OC23CCC(C)CC3)c1 (stereo not given) | 0.38
CCCCNC(=O)Cn1ncc2c(C)n(Cc3cccc(Cl)c3)c(C)c2c1=O | -0.99
COc1ccc(C)cc1NC(=O)CC(=O)Nc1ccc2nc3n(c(=O)c2c1)CCCCC3 | 0.33
O=S(=O)(c1ccc(Br)s1)N1CCN(c2cccc(C(F)(F)F)c2)CC1 | -0.69
COCCN(CCOc1ccccc1F)C(=O)c1ccccc1C#N | -0.84
O=C(c1cccc2c1OCCO2)N1CCCN(c2ccncc2F)CC1 | -1.1
COCCOC(=O)C1=C(C)N=C2SCCC(=O)N2C1c1ccc(OCc2ccccc2)c(OC)c1 (stereo not given) | -2.6
Cc1cc(C(=O)N2CCCC3(CCCN(Cc4ccccc4)C3)C2)cc(=O)[nH]1 (stereo not given) | -2.3
CCOC(=O)N1CCc2c(sc3c2c(=O)n(-c2ccc(CC)cc2)c(=O)n3CC(=O)c2ccc(F)cc2)C1 | -0.02
Cc1noc2nc3c(c(C(=O)N4CC(O)C(Cc5cnccn5)C4)c12)CCC3 (stereo not given) | 0.57
COc1ccccc1N1CCN(S(=O)(=O)c2ccc(-n3cnnn3)cc2)CC1 | 0.21
CCOc1ccc(NC(=O)CCNS(=O)(=O)c2cccc3nonc23)cc1 | -0.01
COc1ccccc1C(=O)CC1(O)C(=O)N(CC(N)=O)c2ccccc21 (stereo not given) | -0.63
COCc1nc(C2CC(N)C2)cc(N2CCN(CC3CCCC3)CC2)n1 (stereo not given) | -0.12
